Source: PubChem BioAssay
UCH37 inh – blocks the human deubiquitinase UCH37 | 330,000 tested, 0.33% active | purified proteasome/UCH37, Ub-AMC cleavage fluorescence | inhibition, % (no concentration beside the values);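 active = mean of two replicates above 20%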;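 note: 0% = compound-free wells with enzyme and 100% = wells lacking proteasome; stock transfer was 100 nL into about 20 µL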
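system = Proteasome-associated human UCH37 deubiquitinase | amount = 0.15 nM proteasome as dispensed | medium = pH 7.4 Tris-HCl (50 mM) with ovalbumin, ATP-MgCl2, DTT | incubation = 30 min preincubation with enzyme, 25 min cleavage at room temperature | detection = AMC fluorescence 355/460 nm | read-out basis = percent inhibition | controls = no-proteasome and no-compound wells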
ALR inh – blocks human ALR sulfhydryl oxidase activity. P55789. purified ALR, DTT oxidation, H2O2 HRP-luminol luminescence. inhibition, % (test concentration not listed). 290,000 tested, 3.8% active. AID 485317;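 active = mean and each replicate at 75% or more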;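 note: stock transfer was 7.5 nL into about 7.5 µL; 0% = neutral wells and 100% = wells with inactivated enzyme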
Target sequence (P55789 whole entry, looked up): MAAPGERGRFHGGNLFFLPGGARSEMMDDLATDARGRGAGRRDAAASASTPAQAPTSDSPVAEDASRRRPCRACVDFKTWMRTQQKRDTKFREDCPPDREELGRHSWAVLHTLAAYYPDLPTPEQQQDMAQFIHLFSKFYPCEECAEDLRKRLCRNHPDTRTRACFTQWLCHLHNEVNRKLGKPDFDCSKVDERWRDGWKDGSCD
FGF22 binding – FGF22 (human) thermal shift binding; calls only at 9.99 µM; 340,000 tested, 1.5% active; recombinant FGF22 thermal shift, SYPRO orange fluorescence; percent of sucrose octasulfate shift, DMSO zero; Q9HCT0;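 active = melting point raised past a set limit in the mean and every replicate; three in four hits are not shown here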
Target sequence (Q9HCT0 whole entry, looked up): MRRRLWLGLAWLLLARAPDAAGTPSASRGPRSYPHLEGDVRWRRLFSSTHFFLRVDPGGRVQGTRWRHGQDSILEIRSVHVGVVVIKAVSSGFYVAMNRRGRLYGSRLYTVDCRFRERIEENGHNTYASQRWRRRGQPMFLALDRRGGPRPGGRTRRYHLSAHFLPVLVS
E coli growth – inhibitors of Escherichia coli growth; OD600 absorbance (concentration not given with the values); OD600, 23 h; active compounds read low; AID 1053175; 330,000 tested, 0.21% active;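 active = OD600 absorbance below the run mean of sample wells minus 3.6 SD, in any replicate, cut at about 0.56 in these data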;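 note: stock transfer was 300 nL into about 60 µL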
HNF4A DNA FP – change in binding of human HNF4 alpha to DNA | AID 1224865 | HNF4a-FITC DNA binding, fluorescence polarization, 1 h | activity change, % at 10 µM | 360,000 tested, 0.3% active; in the data active = activity change above about 30%, passing the limit was not always enough;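 note: controls were the assay level and a saturating level of protein; the project sought stronger binding though the title names inhibitors; some compounds called inactive have numbers as strong as hits; positive values seem to mean higher polarization but the record does not say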
Target sequence (P41235 whole entry, looked up): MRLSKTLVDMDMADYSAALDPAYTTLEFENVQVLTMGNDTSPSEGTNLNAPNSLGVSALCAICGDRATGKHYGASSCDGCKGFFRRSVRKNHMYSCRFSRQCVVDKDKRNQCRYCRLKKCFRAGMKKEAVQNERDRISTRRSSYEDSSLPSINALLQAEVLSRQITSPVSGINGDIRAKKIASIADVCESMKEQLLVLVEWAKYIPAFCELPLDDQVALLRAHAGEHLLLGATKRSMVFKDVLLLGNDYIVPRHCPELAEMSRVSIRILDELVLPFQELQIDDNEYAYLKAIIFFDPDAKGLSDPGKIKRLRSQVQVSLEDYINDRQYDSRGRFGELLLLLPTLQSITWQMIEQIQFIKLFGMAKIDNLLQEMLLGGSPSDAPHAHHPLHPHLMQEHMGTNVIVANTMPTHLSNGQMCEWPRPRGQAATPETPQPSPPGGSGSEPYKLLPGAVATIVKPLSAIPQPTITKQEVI
rRNA inh HTS – inhibits bacterial ribosomal RNA function over humanized ribosomes | 350,000 tested, 1.6% active | E. coli WT GFP vs humanized-ribosome RFP mutants, fluorescence, 24 h; active compounds read low; DMSO median 0, no signal -100 | GFP signal change (wild-type ribosome), % (test concentration not listed);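 active = significant combined selectivity score with lowered wild-type GFP, culture density cut under 30%, mutant RFP and density less affected; inactive = any of these conditions unmet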; note: one replicate is shown; some compounds called inactive have numbers as strong as hits
B2AR ag – activates human beta-2 adrenergic receptor causing internalization. Am2.2-beta2AR cells, FAP receptor internalization, flow cytometry; reference of the scale not given here. response, % (concentration not given with the values). 340,000 tested, 0.43% active. AID 504454;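 active = response above a set limit, near 3 SD of response in nonfluorescent compounds, cut at about 42% in these data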;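 note: stock transfer was 100 nL into about 11 µL; a reference agonist was the positive control; negative values mostly stem from fluorescent compounds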
rRNA inh HTS OD600 – second read-out of rRNA inh HTS, no call of its own (marks repeat the call); OD600 change, %; measured here: OD600 growth;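 optical density of the mix in the first replicate; 0 = DMSO median and -100 = no signal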
rRNA inh HTS RFP – second read-out of rRNA inh HTS, no call of its own (marks repeat the call); RFP signal change, %; measured here: RFP humanized mutant strains;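 first replicate; 0 = DMSO median and -100 = no signal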
Starred values were filed as active, the others as inactive; i = inactive; . = no result given. A portion of the library; count on the stated rates, not on these rows.

SMILES	UCH37 inh	ALR inh	FGF22 binding	E coli growth	HNF4A DNA FP	rRNA inh HTS	rRNA inh HTS OD600	rRNA inh HTS RFP	B2AR ag
O=C(c1ccc(C(F)(F)F)cc1)N1CCC(=O)N([C@H](COCc2ccc(C(F)(F)F)cc2)Cc2ccccc2)CC1	.	.	i	.	-2.3	8	12	4.9	.
Cc1cccc(NC(=O)CSc2nc(=O)n(CCCN3CCOCC3)c3c2CCCC3)c1C	.	.	i	.	-4.9	0	5	2.7	.
CC(=O)c1cccc(NC(=O)COc2ccc(S(=O)(=O)N3CCOCC3)cc2)c1	-1.2	6	i	0.73	-1.9	10	10	3.4	-1
CCSC1C(=O)N(C)C(SCC)C(=O)N1C (stereo not drawn)	.	.	i	.	-1.1	5	9	2.6	.
Clc1ccc(OCc2nnc(-c3ccccc3Br)o2)cc1	1.0	-7	.	0.72	-2.5	.	.	.	0
CC(OC(=O)Nc1ccccc1)C(=O)OC1CCCCC1 (stereo not drawn)	2.5	.	.	0.65	2.3	8	6	2.9	-5
CC(C)c1nnc(NC(=O)CSc2nc3ccccc3[nH]2)s1	4.4	-6	i	0.62	-2.1	-28*	-18*	-2.1*	-15
CC(=C/c1ccccc1)/C=N/n1c(-c2ccncc2)n[nH]c1=S	.	14	i	.	2.5	20	24	2.9	-2
CCSc1nnc(NC(=O)c2ccc(C)o2)s1	8.6	-4	.	0.67	2.6	.	.	.	0
O=C(NCCSc1c[nH]c2ccccc12)c1c(F)cccc1F	-1.6	.	i	0.65	0.9	-4	-9	1.0	1
O=C(COC(=O)c1ccccc1)NCCC1=CCCCC1	0.8	-2	i	0.72	1.6	-28*	-22*	-2.6*	0
Cc1ccc(OCC(=O)NC2CCCCCC2)cc1C	-0.5	-1	i	0.69	-0.2	-6	-3	2.0	4

Shown with the structure last: entries from further up
UCH37 inh	ALR inh	FGF22 binding	E coli growth	HNF4A DNA FP	rRNA inh HTS	rRNA inh HTS OD600	rRNA inh HTS RFP	B2AR ag	SMILES
1.0	-7	.	0.72	-2.5	.	.	.	0	Clc1ccc(OCc2nnc(-c3ccccc3Br)o2)cc1
2.5	.	.	0.65	2.3	8	6	2.9	-5	CC(OC(=O)Nc1ccccc1)C(=O)OC1CCCCC1 (stereo not drawn)
4.4	-6	i	0.62	-2.1	-28*	-18*	-2.1*	-15	CC(C)c1nnc(NC(=O)CSc2nc3ccccc3[nH]2)s1
.	14	i	.	2.5	20	24	2.9	-2	CC(=C/c1ccccc1)/C=N/n1c(-c2ccncc2)n[nH]c1=S

(continued)
SMILES	UCH37 inh	ALR inh	FGF22 binding	E coli growth	HNF4A DNA FP	rRNA inh HTS	rRNA inh HTS OD600	rRNA inh HTS RFP	B2AR ag
COc1cccc(N2CCN(S(=O)(=O)c3ccc(-c4cnc(C5CC5)o4)cc3)CC2)c1	-1.7	-1	i	0.69	-3.8	-4	4	0.2	5
COc1ccc(S(=O)(=O)NCC(c2ccco2)N2CCOCC2)cc1 (stereo not drawn)	2.5	2	i	0.65	1.8	5	15	-1.4	0
CCOC(=O)Nc1sc(C(=O)N(C)C)c(C)c1C(=O)OCC	0.1	.	.	0.71	-1.2	.	.	.	-14
COC(=O)c1ccc(N2CCOCC2)c(NC(=O)c2ccc(Br)o2)c1	-6.2	-1	i	0.7	-2.2	10	10	2.5	0
O=C(/C=C/c1cccs1)Nc1nccs1	-43	.	i	0.61	2.2	17	15	2.2	-6
O=[N+]([O-])c1ccccc1OCCCNCc1ccccc1	4.2	-3	i	0.69	0.4	10	6	-0.4	-3
COC(=O)[C@]12CCCCC=C1N(Cc1ccccc1)C(=O)[C@H](CC(=O)N1CCC(c3ccccc3)CC1)C2	.	.	i	.	-1.2	10	18	7.8	.
CN(CC(=O)Nc1ccc(Cl)c(Cl)c1)C(=O)CNC(=O)Cc1ccccc1	2.3	5	i	0.68	-1.4	2	9	-3.2	3
Cc1cc(C)c(C#N)c(SCC(=O)Nc2ccccc2C)n1	3.0	2	i	0.7	0.0	13	10	-3.2	-3
CCCNC(=O)c1ccccc1NC(=O)c1ccc2c(c1)NC(=O)C(C)S2 (stereo not drawn)	-0.1	1	i	0.68	1.3	-17	-14	9.0	-2
Cn1c(=O)c2c(nc(SCC(=O)c3ccccc3F)n2C)n(C)c1=O	0.6	-2	.	0.67	.	.	.	.	.
COC(=O)c1sccc1NC(=O)CSc1nnnn1-c1ccccc1C	5.2	-3	.	0.73	-2.1	.	.	.	1

Only rRNA inh HTS, HNF4A DNA FP and E coli growth, for four of the compounds above:
SMILES	rRNA inh HTS	HNF4A DNA FP	E coli growth
Cc1cc(C)c(C#N)c(SCC(=O)Nc2ccccc2C)n1	13	0.0	0.7
COc1cccc(N2CCN(S(=O)(=O)c3ccc(-c4cnc(C5CC5)o4)cc3)CC2)c1	-4	-3.8	0.69
COC(=O)[C@]12CCCCC=C1N(Cc1ccccc1)C(=O)[C@H](CC(=O)N1CCC(c3ccccc3)CC1)C2	10	-1.2	.
CCOC(=O)Nc1sc(C(=O)N(C)C)c(C)c1C(=O)OCC	.	-1.2	0.71

New compounds follow.
SMILES	UCH37 inh	ALR inh	FGF22 binding	E coli growth	HNF4A DNA FP	rRNA inh HTS	rRNA inh HTS OD600	rRNA inh HTS RFP	B2AR ag
COc1cccc(N2C(=NC(=O)COc3ccccc3)SC3CS(=O)(=O)CC32)c1 (stereo not drawn)	6.8	1	i	0.68	-3.9	4	12	-1.8	-8
Nc1nc(Cl)nc2ncn(Cc3ccccc3)c12	0.6	.	i	0.64	-0.9	-2	2	-1.5	9
CCOc1ccc(NC(=O)CN(C)C(=O)C(C)N2C(=O)c3ccccc3C2=O)cc1OCC (stereo not drawn)	0.6	-5	i	0.69	0.4	8	6	0.7	-2
O=C(COC(=O)c1ccc(Cl)nc1)NCCC1=CCCCC1	3.8	88*	i	0.7	-0.7	-9	-16	2.7	-2
C1CCC(c2nn3c(-c4n[nH]c5c4CCC5)nnc3s2)CC1	1.3	.	.	0.72	-0.1	.	.	.	-13
Cc1ccc(OCc2cc(C(=O)N3CCCC(C)C3)no2)cn1 (stereo not drawn)	.	.	i	.	1.1	-4	-15	-0.9	.
CCS(=O)(=O)N1CCN(C(=O)c2ccccc2[N+](=O)[O-])CC1	2.8	-1	.	0.68	-1.3	-7	-7	0.9	6
O=C(Cc1cccc(NC(=O)C2CCN(C(=O)c3ccccc3)CC2)c1)Nc1cccc(C(=O)N2CCCC2)c1	0.5	0	i	0.76	-1.2	-8	14	-0.9	-19
O=C(Nc1cccc(Cl)c1)c1ccc2c(c1)OCCO2	1.3	2	i	0.67	2.0	-15	-17	-3.5	4
COc1cc(-c2nc3c(c(C)nn3-c3ccccc3)c3cc(OC)c(OC)cc23)ccc1O	-91	-3	.	0.66	5.4	.	.	.	17
COc1cc(NS(=O)(=O)c2cc(C(=O)NCCc3ccccn3)ccc2OC)cc(OC)c1	2.1	-2	i	0.69	1.8	3	9	3.6	1
O=C(Cc1c(F)cccc1Cl)Nc1ccccc1N1CCCCC1	-0.7	-3	.	0.69	-2.0	11	11	-2.1	20
COc1ccc(-n2c(C)nn(CC3CC3)c2=O)cc1	1.0	.	i	0.7	-3.5	15	8	1.2	4
COc1ccc(-c2noc(-c3ccc(Br)o3)n2)cc1OC	3.8	-2	.	0.74	-1.2	.	.	.	-6
CC(=O)N1c2c(cc(Br)cc2S(=O)(=O)Nc2c(C)n(C)n(-c3ccccc3)c2=O)CC1C (stereo not drawn)	2.6	-4	.	0.7	-4.7	2	-3	-1.9	1
COc1ccc(/C=N/n2c(=O)[nH]c3c([nH]c4ccc(Cl)cc43)c2=O)cc1CN1CCCCC1	.	8	i	.	5.5	0	7	-1.9	21
CCCCn1nnnc1C(c1ccc(OC)cc1)N1CCN(C/C=C/c2ccccc2)CC1 (stereo not drawn)	.	.	i	.	4.4	-24	-42	-8.0	.
Clc1ncnc2scc(-c3ccc(Br)cc3)c12	.	-4	.	.	3.0	.	.	.	6
Cc1ccc(-c2cc(-c3ccc4c(c3)OCO4)c(C#N)c(N)n2)o1	-63	2	.	0.7	8.9	.	.	.	-1
N#Cc1ccc(OCc2ccc(C(=O)O)o2)cc1	1.4	-11	i	0.66	1.8	10	3	-2.6	-6
COc1ccc(CN2C[C@@H](CO)O[C@@H](n3cnc4c(NCCN(C)C)ncnc43)C2)cc1	.	.	i	.	-0.4	15	19	-0.1	.
Cc1cc(C)c2cc3c(ccn3C3OC[C@H](O)[C@H](O)[C@H]3O)cc2n1 (stereo partly drawn)	-12	.	.	0.78	-12	.	.	.	13
COc1cc(/C=C2/SC(=S)NC2=O)ccc1OS(=O)(=O)c1ccc(C)cc1	3.2	11	.	0.72	21	.	.	.	21
Cc1cccn2c(=O)c3cc(C(=O)NCc4ccco4)c(=N)n(C4CCCCC4)c3nc12	-352	.	.	0.69	1.1	.	.	.	-6
CCCNc1nc2c(c(=O)[nH]c(=O)n2C)n1CCOc1ccccc1	1.9	.	i	0.71	-1.9	23	22	4.2	-8
O=C(OCc1c(Cl)cccc1Cl)c1ccncc1	6.1	-5	.	0.68	-2.9	0	14	-1.5	3
Cc1ccc(NC(=O)c2ccc(NCCN)c([N+](=O)[O-])c2)cc1	4.5	-5	i	0.66	3.0	10	3	-2.5	-9
CCOP(=O)(OCC)C(NC(=O)Nc1ccc(C)cc1)C(N)=O (stereo not drawn)	0.2	-3	i	0.63	1.6	19	14	0.5	-1
COC(C[C@H]1O[C@H]1C(=O)[C@@H](C)OCc1ccccc1)OC	-0.7	16	i	.	0.8	1	4	-2.0	-3
S=C(NC1CC1)N1CCCc2ccccc21	3.1	-55	i	0.72	-0.4	4	9	2.7	7
CCOC(=O)c1c(C)cc(C)n2c1nc1ccccc12	-76	-2	.	0.68	-2.7	.	.	.	-8
COc1ccc(OC)c(NC(=O)c2nc3ccccc3s2)c1	-5.7	-14	i	0.71	-1.1	11	20	1.1	-2
COc1ccc(C(=O)N2CCCC(CO)(Cc3ccccc3C)C2)o1 (stereo not drawn)	6.4	1	i	0.73	2.0	-2	-9	-0.5	0
C=CCOc1cccn2c(N(C=O)Cc3ccc(OC)cc3)c(CC)nc12	.	.	i	.	0.7	11	6	3.8	.
c1ccc(NN(Cc2ccccn2)c2ccccc2)cc1	.	.	i	.	-5.0	-56	-72	-16	.
CCN1C(C)=C(C)S/C1=C1\SC(=S)N(NC(C)=O)C1=O	3.4	13	i	0.65	1.1	10	4	-0.8	-2
Cc1noc(C)c1COc1ccc(C(=O)N2CCCC(C(F)(F)F)C2)cc1 (stereo not drawn)	5.1	-4	i	0.71	4.0	-2	-1	0.3	-4
COc1ccc(NC(=O)CCNS(=O)(=O)c2cccc3nonc23)cc1	-0.3	-2	i	0.68	1.4	-1	-10	-0.5	0
CCOC(=O)CNC(=O)CSc1nnc(COc2ccc(Cl)cc2)n1CC	1.5	2	.	0.77	-0.2	.	.	.	-3
CCC(=O)Nc1nc(OC)cc(OC)n1	-1.1	-13	.	0.71	-1.4	.	.	.	3
Brc1ccccc1-c1nnc(COc2cccc3cccnc23)o1	-0.9	-22	.	0.68	1.2	.	.	.	5
O=C(c1ccc2ccccc2n1)N(CCO)Cc1ccccc1	3.5	1	i	0.72	1.0	1	-2	1.1	-7
